# YopH PTP inh: YopH tyrosine phosphatase inhibitors, primary screen, biochemical, fluorescence Ex485/Em525; YopH tyrosine phosphatase [Yersinia enterocolitica]; inhibition, %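 (about 10 µM by stock and volumes)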; hit rate 0.16% among 140,000; AID 898, 2007;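 active means inhibition of 50% or more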;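 further: controls were vehicle for no effect and minimum signal wells for full effect; inactives centre near -20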
# Arbovirus inh: antivirals against arbovirus infection, primary screen, cell-based, full library, 10K replicate subset | hit rate 0.37% among 200,000 | arbovirus infection cell-based antiviral screen | inhibition, % at 10 µM | AID 1251, 2008;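 active means inhibition from about 30%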;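 further: bluetongue infection of BSR cells; cell survival read as ATP light after 72 h; 0% = infected wells without compound and 100% = uninfected wells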
# RecA intein inh: Mtb RecA intein splicing inhibitors, primary screen, biochemical, fluorescence, HTS; hit rate 0.75% among 290,000; Protein RecA (Mycobacterium tuberculosis (strain ATCC 25618 / H37Rv)), P9WHJ3; cell-free RecA intein splicing; inhibition, %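 (about 9 µM by stock and volumes)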; in the data active means inhibition above about 30%; inconclusive means no clear call, values can overlap the other calls;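 further: 0% = vehicle wells and 100% = reference inhibitor control wells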
# Target sequence (P9WHJ3 whole entry, looked up): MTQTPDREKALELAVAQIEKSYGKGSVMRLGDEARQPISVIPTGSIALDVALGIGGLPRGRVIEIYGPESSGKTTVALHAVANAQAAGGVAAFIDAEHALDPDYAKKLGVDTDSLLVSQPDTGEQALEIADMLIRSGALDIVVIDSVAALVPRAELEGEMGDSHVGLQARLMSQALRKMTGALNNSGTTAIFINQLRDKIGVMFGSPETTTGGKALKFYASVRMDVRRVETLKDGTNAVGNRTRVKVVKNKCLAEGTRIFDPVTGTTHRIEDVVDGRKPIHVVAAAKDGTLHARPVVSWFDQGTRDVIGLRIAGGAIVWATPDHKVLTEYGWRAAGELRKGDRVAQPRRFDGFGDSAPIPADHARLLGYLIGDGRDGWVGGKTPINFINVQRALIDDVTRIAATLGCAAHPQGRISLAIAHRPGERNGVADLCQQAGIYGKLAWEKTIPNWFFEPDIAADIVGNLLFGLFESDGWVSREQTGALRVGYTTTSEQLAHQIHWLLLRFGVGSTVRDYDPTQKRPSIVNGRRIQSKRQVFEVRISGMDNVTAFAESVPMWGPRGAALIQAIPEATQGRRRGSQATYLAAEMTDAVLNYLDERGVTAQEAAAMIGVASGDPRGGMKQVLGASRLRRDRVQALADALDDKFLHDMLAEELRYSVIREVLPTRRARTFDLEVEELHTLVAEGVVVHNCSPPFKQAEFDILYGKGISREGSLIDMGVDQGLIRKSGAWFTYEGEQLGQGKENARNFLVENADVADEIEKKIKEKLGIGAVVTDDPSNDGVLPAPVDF
# Mtb bLac sens: beta-lactam sensitization of Mtb H37Rv, H37Rv. M. tuberculosis H37Rv growth with meropenem, percent inhibition; hits of this screen are not shown here. inhibition, % at 25 µM. hit rate 0.27% among 330,000;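 active means about 74% or more and at least 40 points above the plate without the antibiotic, then above 30% in a dose series; inconclusive means first-round hits that could not be retested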;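 further: growth measured after seven days incubation then overnight dye step; 0% = bacteria only wells and 100% = bacteria with antibiotic; twin plates without the antibiotic show which effects depend on it; some results filed as inactive read as strong as hits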
# Mtb H37Rv: M. tuberculosis H37Rv growth inhibitors, H37Rv strain (AID 1626); M. tuberculosis H37Rv growth inhibition; higher % means a stronger effect; inhibition, % at 10 µM, or IC50 in µM where a hit was titrated; hit rate 0.95% among 220,000;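 active means confirmed in a dose series; inconclusive means inhibition above 80% but not taken into the dose series; inactive means below 80% or under 30% at every dose of the series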;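 further: bacteria incubated seven days before Alamar blue readout; 0% = bacteria only wells and 100% = bacteria with antibiotic wells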
# Arbovirus inh repeat: recorded beside Arbovirus inh, whose call it bears; inhibition, %; measured here: 10K subset replicate screen; many hits read low in the repeat;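 first of two repeat runs on a subset; 0% = infected and 100% = uninfected wells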
# Starred values were filed as active, the others as inactive; ? = inconclusive; . = not tested or not shown.
SMILES,YopH PTP inh,Arbovirus inh,RecA intein inh,Mtb bLac sens,Mtb H37Rv,others
COC(=O)CCCC(=O)N1CCCC(CNS(=O)(=O)c2ccc(OC)cc2)C1 (stereo unspecified),.,6.7,-1.6,3.7,6.1%,
O=C(O)C1C2C=CC(C2)C1C(=O)N1CCc2ccccc21 (stereo unspecified),-57.9,1.1,-1.3,3.3,-8.5%,
CC(C)(C)N(Cc1nc(-c2ccccc2)no1)C(=O)c1ccc2c(c1)OCO2,.,.,8.6,1.4,.,
OC12Oc3ccccc3C=C1N1CCC2CC1 (stereo unspecified),-12.2,4.2,-0.2,6.5,-1.3%,Arbovirus inh repeat=-5.3
Cc1ccc(S(=O)(=O)NCCNc2ccc([N+](=O)[O-])cc2)cc1,.,.,1.7,-2.6,.,
CC(C)OC(=O)CN1C(=O)S/C(=C/c2ccc(N3CCCCC3)o2)C1=O,-27.6,0.8,0.1,-12.2,1.6%,
O=C(COc1ccccc1)NCC(=O)N/N=C/c1ccco1,-27.0,8.6,-2.3,-7.1,0.1%,
CCC(CC)C1C(C#N)=C(N)Oc2n[nH]c(C)c21 (stereo unspecified),-16.1,-6.2,-6.9,7.0,-8.6%,
Cc1ccc(Oc2ncc(CN3CC(C)OC(C)C3)s2)cc1 (stereo unspecified),-38.9,0.5,0.1,4.2,-3.2%,
CC(C)CSc1nc2ccccc2n1CC(N)=O,-17.4,3.4,-1.9,-0.4,1.1%,
C#CCN(C(=O)c1ccc(OC)c(OC2CCN(C(C)C)CC2)c1)C1CCCCC1,.,.,-0.3,-1.3,.,
O=C(CSc1nc2[nH]ncc2c(=O)n1-c1ccccc1Cl)N1CCCC1,.,-3.2,-4.0,-8.5,2.3%,
O=C(NCCc1ccccc1)C(=O)NCC1(c2ccccc2)CCCC1,0.8,-0.8,-3.7,3.3,2.9%,
CCOCCCNC(=O)c1ccccc1OC1CCN(S(C)(=O)=O)CC1,.,1.2,0.0,-0.3,-11.1%,
CC(C)CN(C1CCS(=O)(=O)C1)S(=O)(=O)c1ccc(C(C)C)cc1 (stereo unspecified),.,.,-2.6,-7.0,.,
Cc1ccc(NC(=O)CNCc2cccs2)c(Br)c1,.,.,3.5,1.4,.,
CC(=O)N1CCc2cc(S(=O)(=O)CCC(=O)N3CCN(c4ccccn4)CC3)ccc21,-21.6,0.5,-2.9,-7.5,-3.2%,
CN(C)c1nc(N)nc(CSc2nnnn2C)n1,-7.6,1.3,3.5,-2.0,5.4%,
C=CCC1(O)C(=O)Nc2ccccc21 (stereo unspecified),4.2,-2.1,1.7,-10.7,-1.8%,
Cc1cc(C)n(C(=O)c2cccc(S(=O)(=O)N3CCCCC3)c2)n1,.,.,12.5,-4.8,0.3%,
CC(=O)Nc1ccc(NCC(=O)c2ccccc2)cc1,.,.,0.1,-3.7,.,
Cc1ccc(-c2csc(N3CCN(CCCn4c(-c5ccncc5)nc5ccccc54)CC3)n2)cc1,.,.,25.1,85.0,.,
COc1ccccc1NC(=O)/C=C\c1ccco1,.,.,5.7,3.8,.,
O=C(Nc1cccc(O)c1)c1noc2c1CCc1ccccc1-2,-6.2,0.9,0.9,73.2,51.5%,
COc1ccc(C(F)(F)F)cc1N/C=C/c1nnnn1-c1ccc2ccccc2c1,.,.,2.1,-3.7,-0.2%,
COc1ccc(CNC(=O)c2ccc(Br)o2)cc1,-5.0,3.3,-0.9,21.3,-3.6%,
COc1ccc(C)cc1NC(=O)CN(C)S(=O)(=O)c1cnc[nH]1,-29.2,3.9,9.2,3.6,-3.4%,
C#Cc1cccc(NC(=O)CSc2nnc(-c3ccc(C(F)(F)F)cn3)o2)c1,.,.,0.5,-7.8,0.1%,
CCN1CCCC1CNC(=O)Cn1ncc2c(=O)oc3ccc(C)cc3c21 (stereo unspecified),-14.0,0.2,-1.7,1.5,-2.3%,
Cc1cc(N2CCCC2)nc2c(C)cccc12,.,-0.6,-5.4,22.9,2.6%,
NC(=O)CCS(=O)(=O)CCN1CCCCC1,2.8,1.1,3.0,-10.3,4.7%,
COc1ccc(C2C(=O)N(C3CCCCC3)CC(=O)N2C2CCCCC2)cc1 (stereo unspecified),-12.0,-5.7,1.1,-3.5,2.4%,
CCc1ccc2oc(C(=O)NC3CCS(=O)(=O)C3)cc(=O)c2c1 (stereo unspecified),.,.,11.2,-4.5,.,
COCCn1cnc2c(c1=O)c1nc3ccccc3nc1n2/N=C/c1cccc(OC)c1,.,.,1.9,2.5,1.9%,
Brc1cccc(CN2CCCCCCC2)c1,-13.3,4.4,0.1,1.5,-3.9%,
CCOc1ccc(NC(=O)Cn2nnc(-c3ccccc3F)n2)cc1,28.0,2.4,-7.3,-8.0,-13.9%,
CCOc1ccc(NC(=O)CSc2nc(O)c(C)c(=O)n2-c2ccc(F)cc2)cc1,.,.,2.3,96.2,.,
CCOC1(/N=C(\C)NS(=O)(=O)c2ccc(Cl)cc2)C(C)=CC(=O)C=C1C,.,-7.3,3.1,0.7,3.8%,
O=S1(=O)CCC(n2nccc2-c2ccccc2)C1 (stereo unspecified),.,.,-2.3,4.6,.,
N#Cc1cccc2c1-c1ccccc1/C2=N/NC(N)=S,.,.,14.8,32.0,.,

# An excerpt from above in order of molecular weight, smallest number first:
SMILES,YopH PTP inh,Arbovirus inh,RecA intein inh,Mtb bLac sens,Mtb H37Rv,others
Cc1cc(N2CCCC2)nc2c(C)cccc12,.,-0.6,-5.4,22.9,2.6%,
COCCn1cnc2c(c1=O)c1nc3ccccc3nc1n2/N=C/c1cccc(OC)c1,.,.,1.9,2.5,1.9%,
Cc1ccc(-c2csc(N3CCN(CCCn4c(-c5ccncc5)nc5ccccc54)CC3)n2)cc1,.,.,25.1,85.0,.,

# Of the compounds above, 3 have an NH in an aromatic ring:
SMILES,YopH PTP inh,Arbovirus inh,RecA intein inh,Mtb bLac sens,Mtb H37Rv,others
CCC(CC)C1C(C#N)=C(N)Oc2n[nH]c(C)c21 (stereo unspecified),-16.1,-6.2,-6.9,7.0,-8.6%,
O=C(CSc1nc2[nH]ncc2c(=O)n1-c1ccccc1Cl)N1CCCC1,.,-3.2,-4.0,-8.5,2.3%,
COc1ccc(C)cc1NC(=O)CN(C)S(=O)(=O)c1cnc[nH]1,-29.2,3.9,9.2,3.6,-3.4%,

# Next compounds follow:
SMILES,YopH PTP inh,Arbovirus inh,RecA intein inh,Mtb bLac sens,Mtb H37Rv,others
Cc1csc(NC(=O)CCn2c(=O)oc3ccc(Cl)cc32)n1,.,.,2.9,5.3,.,
COc1ccnc(CN(C)C(=O)C2CCC(=O)N(Cc3cccc(C(F)(F)F)c3)C2)c1 (stereo unspecified),.,.,-2.3,-4.7,.,
O=C(NCCc1ccccc1)C1CC(=O)N(c2ccc3c(c2)OCCO3)C1 (stereo unspecified),.,.,-6.1,-9.4,.,
Cc1nn(Cc2cccc(C(=O)NN)c2)c(C)c1Cl,.,.,0.6,-11.0,1.8%,
O=C1CCCC(=O)C1C1c2ccccc2CCN1C(=O)CCl (stereo unspecified),.,.,-4.0,-3.5,1.2%,
COc1ccc(CCN2CCCC(CN(C)Cc3cc(Cl)c(O)c(OC)c3)C2)cc1 (stereo unspecified),.,.,-1.7,-4.1,.,
O=C(Nc1ccccc1F)Nc1cccc2ccc(O)cc12,.,.,6.8,5.7,-3.6%,
COCCCNc1nc(=S)[nH]c2cc(OC)c(OC)cc12,-15.4,-5.3,-1.2,-1.2,-10.3%,
CC(Oc1ccccc1F)C(=O)/C=C/N(C)C (stereo unspecified),-28.7,3.0,2.5,0.8,-1.6%,
COc1cccc(CNc2nnnn2C)c1,.,.,1.4,0.7,.,
CO/N=C(\Cn1ncc(N2CCCC2)c(Br)c1=O)c1ccc(Cl)cc1,-7.6,-11.3,9.6,99.7,?,
O=S(=O)(c1ccccc1C(F)(F)F)N1C=CC(C(F)(F)F)=NCC1,.,.,-0.8,.,-8.9%,
COc1ccc(-n2c(SCC(=O)Nc3nc(C)cs3)nnc2-c2ccoc2C)cc1,-27.8,-1.9,11.3,-3.4,-10.5%,
CCCCCCn1c(N2CCN(c3cccc(Cl)c3)CC2)nc2c1c(=O)[nH]c(=O)n2C,-17.6,-2.1,4.0,6.6,-2.5%,
CCOC(=O)C1CCCN(S(=O)(=O)c2ccc(S(=O)(=O)N3CCCC3)cc2)C1 (stereo unspecified),.,.,1.4,-18.2,.,
CCn1c(SC)nnc1C1CCCN(CC(=O)Nc2ccccc2N2CCOCC2)C1 (stereo unspecified),.,.,-1.3,2.7,.,
CCOC(=O)c1ccc(NC(=S)NCCCN2CCCCC2)cc1,-29.4,-4.4,-0.7,-16.3,-0.8%,
CCOc1ccc(CCNC(=O)CN2CCN(Cc3ccccc3F)C2=O)cc1OCC,-29.8,-4.0,1.1,-4.5,-10.3%,
CC1Cc2ccccc2N1C(=O)/C=C/c1cccc(F)c1 (stereo unspecified),.,-9.6,8.1,16.6,9.5%,
Cc1ccccc1S(=O)(=O)Cc1ccc(C(=O)NC(C)c2ccccc2)o1 (stereo unspecified),.,.,0.0,-0.3,.,
Cc1ccc(C(=O)ONc2ccc(N=NC(=O)c3ccccc3O)cc2)cc1,-6.1,-44.0,5.3,26.7,75.0%,
CC1CN(C)C(C)CC1NCc1ccc2c(c1)OCO2 (stereo unspecified),-1.6,-0.9,-0.8,-20.8,-3.2%,
CN(C)S(=O)(=O)c1cccc(C(=O)OCC(=O)c2c(N)n(C)c(=O)n(C)c2=O)c1,.,5.2,-1.0,0.7,-4.4%,
O=C(NCc1cccnc1)c1sc2cc(Cl)ccc2c1Cl,-9.1,15.6,4.4,52.6,3.3%,
COc1ccc(C(=O)NCCNc2nc3c(C)cccc3cc2C#N)cc1OC,.,.,-29.2,-2.8,.,
CC(=O)N(c1cccc(Cl)c1)c1nc(C)cc(C)c1C#N,.,.,3.9,-18.5,1.7%,
CC(=O)OCC(=O)c1ccc2ccn(C(C)=O)c2c1,18.3,3.7,.,10.9,-6.0%,
COc1ccccc1-c1ccc(=O)n(CC(=O)NC2CCc3ccccc32)n1 (stereo unspecified),.,-1.0,-0.8,1.9,-1.2%,
CN(C)S(=O)(=O)c1ccc(C(=O)OCc2ccc(C#N)cc2)cc1,-40.2,5.3,-0.7,1.5,7.0%,
Cc1ccccc1NC(=O)CCNS(=O)(=O)c1cccc2nsnc12,.,.,-10.2,-4.5,.,
CN(CCNC(=O)c1cn(C)c2ccc(S(=O)(=O)N3CCCC3)cc2c1=O)CCc1ccccc1,-39.8,-4.3,1.1,-0.6,-3.4%,
CCOC(=O)c1[nH]c(C)c(C(=O)OCC(=O)N2CC(=O)Nc3ccccc32)c1C,-13.4,-3.0,1.5,3.3,-0.2%,
CN(C)N1C(=O)/C(=C/c2ccco2)SC1=Nc1ccccc1,.,.,0.6,-4.1,.,
N#Cc1ccc(CSc2nnc3ccccn23)cc1,.,-2.2,-58.5,3.7,-6.1%,
COc1ccc(CC(=O)OC(C)C(=O)c2ccc(C)cc2)cc1 (stereo unspecified),.,.,2.7,2.5,.,
COCCCN1C(=O)C(=O)/C(=C(/O)c2ccc(S(=O)(=O)N3CCCCC3)cc2)C1c1ccc(O)c(OC)c1 (stereo unspecified),.,.,-2.0,3.2,.,
CC(C)(C)OC(=O)NCCCCc1cn(CC(=O)N2CCN(C(=O)OC(C)(C)C)CC2)nn1,.,5.4,-2.9,-0.1,-7.5%,
CCn1c(-c2ccc(F)cc2)cnc1SCC(=O)N1CCc2ccccc21,-13.2,-1.2,6.2,2.7,-2.4%,
COCc1ccc(O)c2ncccc12,-6.8,-8.2,2.2,100.3,10.9µM*,
CC(C)c1ncc(C(O)c2cccc3ccccc23)n1C (stereo unspecified),-5.4,7.1,0.3,-7.9,3.7%,Arbovirus inh repeat=3.4
CCC1=C(OC(=O)N(CC)CC)N2C(=O)OC(=NCCc3c[nH]c4ccccc34)[C@]2(Cc2ccccc2)[C@H]2C1=CC[C@H]1C(=O)N(CC)C(=O)[C@H]12,.,.,5.9,1.6,5.7%,
CCOc1ccc(-n2c(O)c(C=NCCN(CC)CC)c(=O)[nH]c2=O)cc1,3.7,-3.9,0.0,-17.1,4.1%,
CC(=O)c1ccc(N2C(=NC(=O)COc3ccccc3)SC3CS(=O)(=O)CC32)cc1 (stereo unspecified),.,.,0.9,-0.5,.,
COc1ccc(C(=O)COC(=O)CCS(=O)(=O)c2ccc(C)cc2)c(OC)c1,.,.,2.4,1.5,.,
Cc1n[nH]c(C)c1Sc1ccccc1N,.,-3.7,-0.9,-14.0,-7.4%,
Cc1ccc(C(=O)N2CCOCC2)cc1S(=O)(=O)N1CCCCC1,.,.,-9.4,-1.4,.,
COc1ccccc1C(=O)NC(=O)COC(=O)c1ccc([N+](=O)[O-])cc1,.,.,0.7,43.3,.,

# From PubChem BioAssay

# The list is partial (hit frequency here may not be typical).
